High-throughput results: PubChem, several laboratories
RGS16-Gao HTS = modulators of RGS16 binding to Galphao, primary screen, biochemical, human proteins, multiplexed bead flow cytometry; Regulator of G-protein signaling 16 (Homo sapiens) + Guanine nucleotide-binding protein …; bead-based flow cytometry RGS16-Galphao binding, fluorescence; actives lie on both sides; binding response (% of control), % at 10 µM; 220,000 tested, 0.38% active; AID 1441, 2008;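 active = below 25% or above 175%, edge rows of some plates excepted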;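 note: Galphao activated by GDP with aluminum fluoride before binding; 100% = wells without compound and 0% = beads without RGS; some results beyond the cut were filed as inactive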
PKD1 kinase inh = inhibitors of human PKD1 kinase, biochemical, fluorescence polarization; Serine/threonine-protein kinase D1 (Homo sapiens), Q15139; PKD1 kinase fluorescence polarization assay; inhibition, %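 (about 10 µM by stock and volumes)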; 200,000 tested, 0.056% active; AID 797, 2007;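 active = inhibition of 50% or more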;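 note: controls were vehicle for no effect and a reference inhibitor for full effect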
Target sequence (Q15139 whole entry, looked up): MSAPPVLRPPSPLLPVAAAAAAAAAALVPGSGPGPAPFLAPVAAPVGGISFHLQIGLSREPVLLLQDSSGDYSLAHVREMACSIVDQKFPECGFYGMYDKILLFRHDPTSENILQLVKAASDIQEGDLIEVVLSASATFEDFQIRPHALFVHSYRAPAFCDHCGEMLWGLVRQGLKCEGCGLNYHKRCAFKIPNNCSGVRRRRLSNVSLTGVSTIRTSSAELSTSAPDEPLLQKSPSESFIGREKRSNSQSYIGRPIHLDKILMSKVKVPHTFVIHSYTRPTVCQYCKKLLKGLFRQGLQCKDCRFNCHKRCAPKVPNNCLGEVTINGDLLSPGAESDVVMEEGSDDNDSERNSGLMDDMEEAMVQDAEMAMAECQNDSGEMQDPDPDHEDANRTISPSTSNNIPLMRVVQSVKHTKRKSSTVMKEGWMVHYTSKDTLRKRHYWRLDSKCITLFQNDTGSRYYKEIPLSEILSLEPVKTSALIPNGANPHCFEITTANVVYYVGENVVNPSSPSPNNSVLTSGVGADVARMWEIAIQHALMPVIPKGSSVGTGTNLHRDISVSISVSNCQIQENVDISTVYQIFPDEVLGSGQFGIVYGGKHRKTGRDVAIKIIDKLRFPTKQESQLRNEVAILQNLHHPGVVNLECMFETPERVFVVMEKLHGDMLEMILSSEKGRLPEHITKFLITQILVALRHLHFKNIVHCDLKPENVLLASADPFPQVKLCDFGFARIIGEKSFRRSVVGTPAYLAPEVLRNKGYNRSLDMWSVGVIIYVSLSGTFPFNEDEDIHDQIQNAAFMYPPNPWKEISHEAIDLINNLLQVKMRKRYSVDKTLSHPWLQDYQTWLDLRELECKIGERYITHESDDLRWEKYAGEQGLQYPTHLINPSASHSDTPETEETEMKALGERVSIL
INS promoter inh = inhibitors of insulin promoter-driven GFP, primary screen, imaging, TRM-6 cells (human fetal islet line), eGFP reporter, cell count. reporter expression induced with tamoxifen. inhibition, % at 2 µM. 130,000 tested, 0.9% active. AID 1273, 2008;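 active = inhibition above the mean plus 3 SD, with well images judged a real hit on visual review, cut at about 60% in these data, passing the limit was not always enough; inconclusive = inhibition over the cutoff but images rejected on review; inactive = inhibition not above the cutoff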
GALR2 agonist = GALR2 receptor agonists, primary screen, cell-based; Galanin receptor type 2 (Homo sapiens), O43603; GALR2-expressing cells, agonist activation read-out; activation, %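 (tested at 5 µM)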; 140,000 tested, 0.48% active; AID 803, 2007;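 active = above mean plus 3 SD of all compounds, about 5% in these data, not always enough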;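 note: 0% = vehicle buffer wells and 100% = reference agonist at full effect; tested in CHO reporter cells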
HSV replic up = enhancers of HSV replication in host cells, fold increase, host cell viability | HSV replication augmentation in cells | maximum fold increase | 220,000 tested, 0.005% active | AID 1956, 2009;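 active = peak rise of 1.5-fold or more in the series; inconclusive = self-fluorescent or not available for retest; tested in PC3 cells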;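 note: first round at 10 µM; read as green reporter fluorescence; hits show the peak of a series up to 25 µM; 1 = signal of infected wells without compound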
INS promoter inh cell count = further read-out of INS promoter inh, marked with its call; normalized cell count, %; measured here: cell count, toxicity; reference of the scale not given here;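 cells exposed to compound for 48 h; stained nuclei by imaging scaled within each plate; lower means fewer cells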
HSV replic up primary fold = also measured in HSV replic up; calls as there; fold increase; compound at 10 µM; measured here: primary screen fold increase 10 uM; tested in PC3 cells;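 GFP signal in the first replicate; 1 = infected wells without compound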
* hit, by the source's call; i = inactive; u = inconclusive; x = not tested or not shown.

SMILES	RGS16-Gao HTS	PKD1 kinase inh	GALR2 agonist	INS promoter inh cell count	HSV replic up primary fold	HSV replic up	INS promoter inh
CC(C(=O)NC1C(=O)N2C(C(=O)O)=C(CSc3nnnn3C)CSC12)n1cc(Br)cn1 (centres undefined)	91	1	x	x	1.1	i	x
CCn1c(=NC(=O)C2COc3ccccc3O2)sc2c(OC)ccc(OC)c21 (centres undefined)	102	x	x	x	1	i	x
CCCc1ccc(OCC(O)CN2CCN(c3ccccc3)CC2)cc1 (centres undefined)	-155	1	-1.2	x	0.93	i	x
CCCc1nnc(N2C(=O)c3cccc4cccc(c34)C2=O)s1	101	-1	0.0	67	1.1	i	-47
Cc1csc(SCC(=O)Nc2sc3c(c2C#N)CCC3)n1	93	-7	-1.1	202	0.86	i	-16
COc1ccc(-n2c(=S)[nH]c3cc(C(=O)Nc4ccccc4OC)ccc3c2=O)cc1	97	0	-1.8	103	1	i	7
CC(Sc1nnc(Cc2cccs2)n1C1CCCCC1)C(N)=O (centres undefined)	101	-10	-2.7	235	0.95	i	-41
CCOc1cc(S(=O)(=O)NCc2ccccc2)ccc1F	115	11	-4.1	57	0.85	i	-17
CC1(C)CC(=O)N(c2ccccc2)C1(C)O (centres undefined)	100	-1	-2.6	150	1.1	i	21
C=CCn1c(SCC(=O)C(C)(C)C)nnc1-c1cccs1	95	11	-0.2	x	1	i	x
COC(=O)[C@@H]1C[C@@H]2CC[C@@H](O)C[C@@H]2N1Cc1ccc(OC)cc1	108	x	x	x	0.97	i	x
COc1ccc(CCNC(=O)COC(=O)c2cnccn2)cc1	103	-13	-1.3	x	0.97	i	x
COc1ccc(C2OC(=O)C(C)(C)C(=O)C2(C)C)cc1OC (centres undefined)	95	x	x	x	1	i	x
COc1ccc2c(c1)C(C)CC(C)(C)N2C(=O)CSc1nc2ccccc2s1 (centres undefined)	98	0	-1.5	x	x	x	x
Cc1ccc(-n2c(SCC(=O)NCc3ccco3)nnc2-c2cccnc2)c(C)c1	98	-4	1.1	78	0.89	i	-67

The listing continues.
SMILES	RGS16-Gao HTS	PKD1 kinase inh	GALR2 agonist	INS promoter inh cell count	HSV replic up primary fold	HSV replic up	INS promoter inh
O=C(CSc1ncnc2sc3c(c12)CCCC3)c1ccccc1	52	0	-1.5	164	0.95	i	69
Cn1c(=O)n(C)c2cc(/C=N/n3cnnc3)ccc21	107	4	-2.2	x	0.95	i	x
CCCCC(=O)Nc1cccc(-c2cn3ccsc3n2)c1	105	-3	-1.6	x	0.85	i	x
Cn1cccc1/C=C1\SC(=O)N(CC(=O)Nc2ccc(Cl)cc2)C1=O	98	-5	-2.4	78	0.93	i	18
COc1ccc(OC)c(NC(=O)CSc2nc3cccnc3n2C)c1	103	-8	-1.6	122	0.87	i	-41
CCOc1cc(C2Nc3cccc4cccc(c34)N2)ccc1O	86	-1	-2.1	136	0.89	i	18
COc1ccccc1C(=O)NC(=S)N1CCc2ccccc21	100	-8	x	x	1.1	i	x
CC(c1ccccc1)C1C(C#N)=C(N)OC2=C1C(=O)CC(C)(C)C2 (centres undefined)	114	-12	-1.6	95	0.95	i	9
CN(Cc1ccccc1)c1nc(CN2CCOCC2)nc2scc(-c3ccccc3)c12	101	5	0.3	90	0.96	i	33
Cc1cccc(N2CCN(C(=O)CS(=O)(=O)Cc3nc(-c4ccccc4F)oc3C)CC2C)c1 (centres undefined)	94	7	-0.9	x	0.89	i	x
O=C(Nc1cc(C(F)(F)F)ccc1F)C1CCCCC1	100	5	0.2	111	0.85	i	-21
CN=C(NC(=O)Nc1c(C)cccc1C)NC(=O)Nc1c(C)cccc1C	109	4	x	125	0.94	i	27
Clc1ccc(-n2nnc(-c3nccs3)n2)cc1Cl	92	-5	x	x	0.89	i	x
CCCCn1nc2cc(C(=O)NCc3ccc(C(F)(F)F)cc3C(F)(F)F)ccc2c1OCC	93	-3	-1.8	x	0.96	i	x
Cc1c2ccccc2nc2c(F)c(NC(C)C)c(F)c(F)c12	88	6	-0.1	92	x	u	-233

(further entries)
SMILES	RGS16-Gao HTS	PKD1 kinase inh	GALR2 agonist	INS promoter inh cell count	HSV replic up primary fold	HSV replic up	INS promoter inh
Cc1nc(CC(=O)N2CCN(S(=O)(=O)c3ccccc3C#N)CC2)cs1	98	-7	-0.1	x	1.1	i	x
Cc1ccc(N(Cc2ccc([N+](=O)[O-])cc2)C(=O)c2ccco2)cc1	99	-8	-1.6	117	1.1	i	0
CSCC(=O)Nc1nc(-c2ccc3c(c2)OCCO3)cs1	100	-3	x	x	1	i	x
O=S(=O)(Nc1cccc2c1ccc1cccn12)c1cccs1	93	-11	-2.3	89	1	i	43
COc1ccc(NS(=O)(=O)c2cccc(Cl)c2Cl)cc1S(=O)(=O)N1CCCCC1	52	-2	-1.8	x	1	i	x
CC1CC(C)CN(CCCNC(=O)Cn2ncc3c(=O)oc4ccccc4c32)C1 (centres undefined)	104	-1	-1.9	x	0.91	i	x
CCCC(=O)c1ccc(N2CCN(C(=O)c3ccc(Br)cc3)CC2)c(F)c1	100	-9	-1.0	x	0.96	i	x
O=C(CSCc1ccc([N+](=O)[O-])cc1)Nc1ccccc1C(=O)O	102	-7	x	x	0.87	i	x
CC(C)c1ccc(/C=N/NC(=O)c2nnn(-c3nonc3N)c2CSC2=NCCS2)cc1	106	-12	0.8	151	0.86	i	26
C/C(=C\C(=O)c1ccccc1)Nc1ccc(Cl)c(Br)c1	x	-16	-2.4	129	0.87	i	0
CCOC(=O)C1CCCN(C(=O)c2ccc([N+](=O)[O-])c(C)c2)C1 (centres undefined)	108	-5	0.0	187	0.91	i	-50
Cc1cccc(OCc2nnc(SCc3nc4cc(C(F)(F)F)ccc4c(=O)[nH]3)o2)c1	112	-2	-0.8	107	0.89	i	-8
Cc1ccccc1OCCN1C(=O)C(=O)c2cccc(C)c21	101	-2	-0.9	x	0.88	i	x
CCn1c(SCC(=O)Nc2ccccc2OC)nc2ccccc2c1=O	110	-4	-0.1	108	0.88	i	57
Cn1cnc2nc3n(c2c1=O)CCC3	99	5	-2.4	47	0.94	i	11

Grouped by structure, the entries above with a nitro group on carbon.
SMILES	RGS16-Gao HTS	PKD1 kinase inh	GALR2 agonist	INS promoter inh cell count	HSV replic up primary fold	HSV replic up	INS promoter inh
Cc1ccc(N(Cc2ccc([N+](=O)[O-])cc2)C(=O)c2ccco2)cc1	99	-8	-1.6	117	1.1	i	0
O=C(CSCc1ccc([N+](=O)[O-])cc1)Nc1ccccc1C(=O)O	102	-7	x	x	0.87	i	x
CCOC(=O)C1CCCN(C(=O)c2ccc([N+](=O)[O-])c(C)c2)C1 (centres undefined)	108	-5	0.0	187	0.91	i	-50

(further entries)
SMILES	RGS16-Gao HTS	PKD1 kinase inh	GALR2 agonist	INS promoter inh cell count	HSV replic up primary fold	HSV replic up	INS promoter inh
Oc1ccc(NC(=S)Nc2ccc(O)cc2)cc1	102	-9	x	x	0.9	i	x
O=C(C[n+]1ccc(-c2cc(C(=O)Nc3cccc(C(F)(F)F)c3)c3ccccc3n2)cc1)c1cccc([N+](=O)[O-])c1	97	-4	x	x	0.79	i	x
COCc1cc(C)nc(NCCc2ccccc2)c1C#N	102	0	-1.2	65	0.9	i	-5
CCC(CC)C(=O)Nc1cc([N+](=O)[O-])ccc1F	88	-1	-0.2	114	1	i	24
Cc1cccc(NC(=S)N/N=C2/CCCCc3ccccc32)c1	101	-12	-0.1	x	0.93	i	x
O=C(Nc1cc(=O)[nH]c2ncnn12)c1ccc(Cl)cc1Cl	105	0	0.4	113	1.1	i	28
CCn1c(SCc2nc3sc(C(=O)O)c(C)c3c(=O)[nH]2)nnc1-c1ccc(Cl)cc1	103	-5	x	x	1.1	i	x
COc1ccc(NC(=O)CSc2nc3ccccc3c(=O)n2CCNC(C)=O)c(OC)c1	103	6	0.0	x	0.7	i	x
C[n+]1c2n(c3ccccc31)N=C(c1cc(C(C)(C)C)c(O)c(C(C)(C)C)c1)CS2	104	-9	x	71	0.6	i	11
N#CCc1ccc(C(=O)c2ccccc2F)s1	99	-1	-3.8	54	1.1	i	-16
COc1ccc2cc(-c3[nH]ncc3CN3CCCN(c4ccccc4)CC3)ccc2c1	95	-1	x	x	0.87	i	x
CC(C)CNC(=O)c1ccccc1NC(=O)CN(c1ccc2c(c1)OCCO2)S(C)(=O)=O	98	-5	-1.8	91	0.98	i	-71
Cc1ccc(-n2ncc3c(=O)n(CC(=O)NC4CCCC4)cnc32)cc1C	98	-9	0.4	67	0.91	i	-21
Cc1ccc(C)c(OCC(=O)N2CCOCC2)c1	101	-7	-1.5	39*	0.93	i	89*
CN1c2ccccc2Oc2c(c(=O)n(C)c(=O)n2C)C1c1cccc([N+](=O)[O-])c1 (centres undefined)	102	-6	0.4	121	0.95	i	-60

(more compounds)
SMILES	RGS16-Gao HTS	PKD1 kinase inh	GALR2 agonist	INS promoter inh cell count	HSV replic up primary fold	HSV replic up	INS promoter inh
O=S(=O)(NCC(c1cccnc1)N1CCOCC1)c1ccc(Cl)cc1 (centres undefined)	100	2	x	70	0.93	i	-20
CC(=O)c1c(C)[nH]c(C(=O)OCC(=O)Nc2sc3c(c2C#N)CCCC3)c1C	99	-13	0.0	128	0.97	i	11
N/C(=N\OC(=O)c1ccc2c(c1)OCO2)c1cccnc1	97	1	x	x	0.92	i	x
CN(C)c1ccc(CN(C(=O)COc2ccc(Br)cc2)C2CCS(=O)(=O)C2)cc1 (centres undefined)	105	-9	-0.6	92	0.84	i	15
COc1ccccc1NC(=O)CCc1nc(-c2cccs2)no1	109	9	-0.2	57	x	x	-83
Cc1cc(NC(=O)C2CC(c3ccc(Cl)cc3)=NO2)no1 (centres undefined)	107	-5	-3.1	144	0.96	i	-17
Cc1[nH]c2ccccc2c1/C=N/Nc1cccc(C(=O)O)c1	101	x	x	x	1.2	i	x
CN(CCOC(=O)CN1C(=O)c2ccccc2C1=O)C1=NS(=O)(=O)c2ccccc21	95	4	x	x	0.95	i	x
O=C(Cc1cccc2ccccc12)Nc1nc2ccccc2[nH]1	102	-4	-2.3	126	0.75	i	26
O=C1CC(N2CCCCCC2)C(=O)N1c1ccc(F)cc1 (centres undefined)	97	3	x	94	1	i	-79
CC(C)COc1ccc(-c2nnn(CC(=O)N3CCCC3)n2)cc1	98	10	-2.5	98	1	i	19
CCOc1cccc(C(=O)Nc2cccc(-c3nnc(-c4ccccc4)o3)c2)c1	93	-1	-2.3	59	0.81	i	-27
Cc1ccc(NCC(=O)N/N=C/c2ccc(OC(=O)c3ccco3)cc2)cc1	99	-1	-0.1	93	0.95	i	47
CN(C)c1ccc(C(=O)OCC(=O)NC2CCCCCC2)cc1	106	-6	x	156	0.88	i	-11
O=C(COC(=O)c1ccco1)NCc1ccccc1Cl	109	2	x	103	0.96	i	43

(listing goes on)
SMILES	RGS16-Gao HTS	PKD1 kinase inh	GALR2 agonist	INS promoter inh cell count	HSV replic up primary fold	HSV replic up	INS promoter inh
O=C(N/N=C/c1cn(-c2cccs2)nc1-c1ccccc1)c1ccccc1Br	102	9	-1.6	x	0.92	i	x
Cc1ccc(-n2nc(C)c(C3(O)C(=O)N(C(C)C)c4ccccc43)c2N)cc1 (centres undefined)	108	2	-1.4	143	0.94	i	45
NC(=O)COC(=O)c1c2c(nc3ccccc13)CCC2	102	-8	x	x	1.1	i	x
CCOC(=O)C1(Cc2cccc(OC)c2)CCN(Cc2cnc(SC)nc2)CC1	102	3	x	x	0.98	i	x
CC(C)NC(=O)CSc1nnc(-c2ccco2)n1N	100	2	-1.8	x	0.96	i	x
O=C(NCN1CCCCC1)c1cccnc1	102	-3	-2.5	40	0.93	i	-210
N/C(Cc1ccc(Cl)cc1Cl)=N\OC(=O)Cc1ccccc1	107	1	-0.2	x	1.1	i	x
CC(C)CNC(=S)N1CCN(C)CC1	93	-8	-1.5	121	0.85	i	4
O=C(CN1C(=O)C2CC=CCC2C1=O)NC1=NCCS1 (centres undefined)	94	-5	0.4	x	0.81	i	x
COc1ccc(Nc2nnc(SCC(=O)N3CCCC3)s2)cc1	101	2	-0.9	98	x	x	0
CN1CCN(C(=O)C2=C[C@@H](C(C)(C)C)C[C@@H](OCc3ccc(CO)cc3)O2)CC1	105	-4	x	x	0.78	i	x
COC(=O)CSc1nnc(CNS(=O)(=O)c2ccc(Cl)cc2)n1C	64	6	-2.4	93	0.99	i	3
CCOc1ccc(NC(=O)CSc2nc(C)cc(C)n2)cc1	100	9	-1.0	90	0.92	i	26
